Screening results (PubChem)
miR-21 FLuc: raises the signal of a miR-21 reporter; HeLa miR-21 FLuc reporter, luciferase, 48 h; Potency, µM (top dose mostly 38.3 µM), for inactives: at the highest dose reporter change, positive = more light; 340,000 tested, under 10 active; active = well fitted rising curve with a large enough effect; inconclusive = small, poorly fitted or top-dose-only effect; inactive = no such curve, though single readings can be large or run the other way;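 further: % of control where 0% means no effect; miR-21 action dims this reporter so a rising signal means less miR-21 action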
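Luminescence from a firefly luciferase reporter carrying a miR-21 binding site downstream, stably expressed under a CMV promoter in HeLa cells that make miR-21 endogenously, reports miRNA modulation after 48 h compound exposure up to approximately 40uM final.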
Rango-impB inh: Rango-importin beta binding inhibition. Q14974. Rango CFP/YFP FRET sensor + importin beta, 45 min. Potency, µM (doses to about 92.2 µM), inactives show at the highest dose inhibition of complex formation. 0.031% of 340,000 active. AID 540263; active = rising FRET ratio curve, often small or poorly fitted; inconclusive = mostly compound fluorescence or quenching in the first reads; inactive = flat curves in all reads;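 further: potency means the concentration at half of the fitted maximal effect; 0% = DMSO wells and 100% = buffer wells lacking importin beta; nearly all actives have a fitted effect of over 15% in size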
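Inhibition scored from the CFP 486 nm/YFP 530 nm FRET ratio 45 min after adding 0.125 microM importin beta to 50 nM Rango biosensor preincubated 5 min with compound (room temperature, PBS with DTT, Tween-20, BSA). No-importin wells as positive control.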
GLA inh pH 4.5: alpha-galactosidase A (human) inhibition, pH 4.5; P06280; purified enzyme, 4-MU-alpha-Gal fluorescence, pH 4.5; activity change, negative = inhibition, % at 105 µM; 230,000 tested, under 10 active; AID 1467; inconclusive = small, poorly fitted or top-dose-only inhibition, or a rising curve; inactive = flat fitted curve, though single readings scatter; no compound was filed as active;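 further: 0% = full activity with enzyme and -100% = basal without enzyme; dose as in the result columns while the protocol names 77 µM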
Target sequence (P06280 whole entry, looked up): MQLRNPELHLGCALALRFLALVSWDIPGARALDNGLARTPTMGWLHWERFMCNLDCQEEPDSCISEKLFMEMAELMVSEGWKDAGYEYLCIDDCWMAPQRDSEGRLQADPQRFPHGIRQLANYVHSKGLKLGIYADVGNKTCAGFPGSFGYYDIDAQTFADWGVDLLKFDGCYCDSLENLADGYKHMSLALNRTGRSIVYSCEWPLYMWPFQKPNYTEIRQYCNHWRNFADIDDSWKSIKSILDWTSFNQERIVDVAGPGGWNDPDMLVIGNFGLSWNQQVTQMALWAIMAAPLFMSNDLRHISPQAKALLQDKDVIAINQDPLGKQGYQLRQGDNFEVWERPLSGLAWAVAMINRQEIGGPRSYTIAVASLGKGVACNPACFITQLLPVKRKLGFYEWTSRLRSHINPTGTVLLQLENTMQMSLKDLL
Rango dissoc inh: prevents RanGTP from dissociating the Rango-importin beta complex; Biochemical FRET Rango-importin beta, RanGTP-induced dissociation; Potency, µM (series often up to 46.1 µM), for the others: at the top dose activity change, negative = inhibition; O95149+P62826; 0.071% of 340,000 active; active means falling FRET ratio curve, often poorly fitted, with flat reads before Ran was added; inconclusive means other falling curves, or compound fluorescence or quenching; inactive means flat or rising ratio curve;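 further: potency means the concentration at half of the fitted maximal effect; % of control where 0% means no effect; nearly all actives have a fitted effect of over 45% in size; -100% = wells without RanGTP and RCC1; the record marks most hits as doubtful in a second field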
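Compounds preincubate 5 min with complex of recombinant Rango and importin beta in PBS with 1 mM DTT. Ran (0.6 uM) loaded with 2 mM GTP plus 0.2 uM RCC1 starts dissociation; FRET is recorded 45 min later.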
The depositor's hits bear a star; ? = inconclusive; nt = not tested or not shown; & = joins results of further samples; [ ] = another dose, or the depositor's remark.

SMILES | miR-21 FLuc | Rango-impB inh | GLA inh pH 4.5 | Rango dissoc inh
COc1ccc(C(=O)COC(=O)C(CC(C)C)N2C(=O)c3ccccc3C2=O)cc1 (configuration not stated) | -7% | -0.2% | -9 | 17%
COc1ccc(NS(=O)(=O)c2cccc(C(=O)NCCCN3CCCC3=O)c2)cc1 | nt | 0.2% | nt | -8%
COc1ccc(OC)c(S(=O)(=O)Nc2ccccc2C(F)(F)F)c1 | -8% | 5.9% | -2 | 15%
CCN(C(=O)Cn1c(=O)oc2cc(S(=O)(=O)N3CCCC3)ccc21)c1ccc(OC)cc1 | 6% | -4.5% | nt | 0%
CCOc1ccc(OCC)c(NC(=O)Nc2ccc3c(c2)N(C)C(=O)CS3)c1 | 23% | -3.1% | -7 | -21%
O=C1NC(=O)C(CSc2ccccc2)(c2ccccc2)N1 (configuration not stated) | nt | 0.4% | nt | 8%
O=C(COc1ccc(Cl)cc1)NNC(=S)NCc1ccccc1 | 8% | -1.3% | nt | -3%
CCN(CC)CCCNC(=O)c1cc(Nc2ccc(OC)cc2)nc2ccccc12 | 0% | 0.4% | nt | 9%
C=C1[C@@H](O)[C@@H]2O[C@]3(CC[C@H](/C=C/[C@@H](C)[C@@H]4CC(C)=CC5(O[C@H](C[C@@](C)(O)C(=O)OC)CC[C@H]5O)O4)O3)CC[C@H]2O[C@@H]1[C@@H](O)C[C@H](C)[C@H]1OC2(CCCCO2)CC[C@H]1C (some centres not stated) | nt | -1.4% | nt | 1%
Cn1ncc([N+](=O)[O-])c1C(=O)NCc1ccccc1 | 1% | -7.4% | -15 | 7%
O=C(COC(=O)c1cccc(S(=O)(=O)N2CCCC2)c1)Nc1ccccc1Cl | nt | -2.1% | nt | 8%
COc1cccc(N(C(=O)c2nc3nccc(C)n3n2)c2nc3ccccc3s2)c1 | -31% | 1.0% | -2 | 0%
CCCCn1c(=O)c(Cc2ccccc2)c(O)c2ccccc21 | -10% | -0.1% | -4 | 12%
CC(=O)NC(O)C(=O)c1ccco1 (configuration not stated) | 0% | 3.7% | 1 | -10%
Cc1ccc(-c2c(C)n([O-])c3c([n+]2=O)CCC3)cc1 | -5% | ? | 7 | 8%
O=C(N/N=C/c1c[nH]c2ccccc12)c1ccc(O)c(O)c1 | -8% | -0.5% | nt | 0%
O=C(CS(=O)(=O)c1ccc(F)cc1)NCc1ccccc1 | nt | 2.1% | nt | 0%
CC(=O)Nc1ccc(NC(=O)c2ccc([N+](=O)[O-])cc2Cl)cc1 | 0% | 0.2% | -5 | 19%
CCn1c(SCC(=O)c2cc(OC)ccc2OC)nnc1C(C)C | -22% | 7.7% | 4 | -7%
COc1ccc(CCNC(=O)c2cnn3c(C(F)F)cc(C)nc23)cc1OC | -24% | -1.8% | -6 | -21%
CC1(C)NC(=O)N(CC(=O)OCC(=O)Nc2c(Br)cc([N+](=O)[O-])cc2Br)C1=O | nt | 0.8% | nt | -5%
CCCCC(=O)NC1(C(F)(F)F)C(=O)N(Cc2ccco2)C(C)=C1C(=O)OC (configuration not stated) | 2% | -0.9% | 0 | 11%
CC(C)CC(=O)N/N=C/c1c(N)n(C)c(=O)n(C)c1=O | 3% | 7.9% | -10 | -14%
Cc1ccc(N(C(=O)c2ccc(S(=O)(=O)N3CCOCC3)cc2)C2C=CS(=O)(=O)C2)cc1C (configuration not stated) | 2% | -0.8% | -2[21.1 µM] | 11%
COc1ccc(Cc2nc3ccccc3n2C)cc1 | 2% | -0.4% | 4 | 4%

The final 2 entries of the part above come first, to join the parts:
SMILES | miR-21 FLuc | Rango-impB inh | GLA inh pH 4.5 | Rango dissoc inh
Cc1ccc(N(C(=O)c2ccc(S(=O)(=O)N3CCOCC3)cc2)C2C=CS(=O)(=O)C2)cc1C (configuration not stated) | 2% | -0.8% | -2[21.1 µM] | 11%
COc1ccc(Cc2nc3ccccc3n2C)cc1 | 2% | -0.4% | 4 | 4%
O=[N+]([O-])c1cccc(CN2CCN(c3ncccn3)CC2)c1 | -5% | -2.0% | nt | 12%
CCN1CCC[C@H]1CNC(=O)c1c(O)c(Cl)cc(Cl)c1OC | 0% | -5.3% | -9&-1&2 | 7%
CCOc1ccccc1OCCCC(=O)ON=C(N)c1ccccc1 | nt | -1.1% | nt | 1%
COc1cccc(CN2CCNC(=O)C2CC(=O)NC2CCCC2)c1OC (configuration not stated) | -2% | -2.6% | nt | -1%
O=C(CCc1nnc2ccc(N3CCC4(CC3)OCCO4)nn12)N1CCCCC1 | -4% | 0.1% | nt | -12%
CC(C)(C)c1ccc(/C=C/C(=O)NCCCN2CCOCC2)cc1 | -6% | -1.5% | nt | 9%
COc1ccc(C2=NN(c3ccccc3)C(c3cn(CCC(=O)O)nc3-c3ccccc3)C2)cc1 (configuration not stated) | -24% | ? | 6 | 0%
Cc1nn(C)c(C)c1CNC(=O)c1nn2c(c1Cl)NC(c1cccs1)CC2C(F)(F)F (configuration not stated) | 16% | -3.8% | 0 | -7%
C(=N\Nc1nc(Nc2ccccc2)nc(Nc2ccccc2)n1)/c1cccnc1 | -5% | 0.5% | -12 | 24%
CC(NCc1cccs1)C(=O)NC1CCCCC1 (configuration not stated) | -4% | 1.8% | -9 | 2%
CCOC(=O)C1CCN(C(=O)COC(=O)c2cccc(F)c2)CC1 | -6% | -1.0% | 4 | -1%
Nc1nnc(-c2cccnc2)s1 | -3%&5% | 1.6% | -4&-5 | -4%
O=C(CNC(=O)c1cccs1)OCC(=O)c1ccccc1 | 0% | -0.4% | 5 | 2%
Cc1ccc(CNC(=O)C2CCCN(S(=O)(=O)N3CCC(C)CC3)C2)cc1 (configuration not stated) | -3% | -4.6% | nt | 3%
COc1cccc(C(=O)N(Cc2cccs2)C2CCS(=O)(=O)C2)c1 (configuration not stated) | 1% | 1.3% | -5 | 1%
Cn1nc(C(F)(F)F)c(-c2ccccc2)c1NC(=O)CCC(=O)O | 0% | 2.4% | -10 | -3%
S=c1c2c(nc3nc[nH]n13)CCC2 | -5% | -0.3% | 6 | 1%
CSc1nsc(SC)c1NC(=O)OC1CCCCC1 | 0% | 4.5% | 0 | -1%
Fc1ccc(CNC2CCN(Cc3ccccc3)CC2)cc1 | 4% | -3.5% | nt | 8%
O=C(Nc1ccc2c(c1)OCCO2)c1cccnc1Oc1ccccc1 | 5% | -0.3% | -8 | 1%
CCCS(=O)(=O)C(=C1Nc2ccccc2N1)S(=O)(=O)CCC | 0% | -5.5% | 4 | -5%
CC(NS(=O)(=O)c1ccc(Cl)cc1)C(=O)NCCC1=CCCCC1 (configuration not stated) | 2% | -0.8% | -3 | 6%
CCCCCCC1/C(=N/O)CCC1C(=O)OC (configuration not stated) | 0% | 5.5% | -13 | 3%
COc1ccc(C(C#N)c2nc3ccccc3nc2Cl)cc1 (configuration not stated) | 18% | -0.8% | nt | 16%
CC(/C=N/n1c(-c2cccnc2)n[nH]c1=S)=C\c1ccccc1 | -1% | 1.1% | 9 | 2%
(listing goes on)
SMILES | miR-21 FLuc | Rango-impB inh | GLA inh pH 4.5 | Rango dissoc inh
Cc1ccc(S(=O)(=O)N2CCN(C)CC2c2ccccc2)cc1 (configuration not stated) | nt | -1.2% | nt | 16%
CN(C)c1ccc(N=Nc2ccccc2Br)cc1 | -19% | 4.4% | nt | -10%
CN(/N=C/c1ccc(Cl)cc1Cl)c1ncc(Cl)cc1C(F)(F)F | -4% | 0.0% | 2 | 7%
CCN(CC(=O)Nc1c(F)cccc1F)C(=O)c1nc2nc(C)cc(C)n2n1 | nt | 0.3% | nt | -7%
Cc1cc(Cl)ccc1OCC(=O)Nc1ccccc1NS(=O)(=O)c1cccs1 | -20% | -2.3% | -4 | -3%
O=C(NN=C1CCCCCCCCCCC1)c1ccncc1 | 3% | -1.0% | -3 | 10%
CC(=O)c1cn(CC(=O)Nc2ccccc2)c2ccccc12 | 4% | 6.1% | -3 | 6%
Cc1cc(-c2ccco2)n2c(nc3ccccc32)c1C#N | -4% | ? | 3 | ?
COc1ccc(NC(=O)Cn2nnc(-c3ccccc3F)n2)cc1Cl | -8% | 0.1% | 0 | -2%
N#CCSc1nc(Nc2ccc3c(c2)OCO3)c2ccccc2n1 | 24% | 2.0% | -3 | -11%
C=CCC[C@@H](Cc1ccc(F)cc1)C(=O)OC[C@H](Cc1c[nH]c2ccccc12)NC(=O)[C@H](CC=C)CC(=O)NCCO | nt | 0.4% | nt | -8%
COc1ccccc1C(=O)Nc1nc2ccccc2s1 | ? | 0.4% | nt | 12%
O=C(c1ccccc1Oc1ccc(C(F)(F)F)cc1[N+](=O)[O-])N1CCOCC1 | -6% | -2.2% | -5 | 2%
N#Cc1cc2c(nc1SCC(O)CS(=O)(=O)Cc1ccccc1)CCCC2 (configuration not stated) | 0% | 1.0% | 5 | -13%
CC(=O)Nc1ccc(C(=O)OCC(=O)N(C)C2CCCCC2)cc1 | -24% | -1.4% | -20 | 1%
CCCN1CCN(CCCNC(=O)C(CC)n2nc(C)n3c(cc4occc43)c2=O)CC1 (configuration not stated) | -6%&-7% | 0.3% | nt | -1%
O=C(Nc1ccc(Br)cn1)c1cccc(-c2cc3ccccc3oc2=O)c1 | -61% | -3.5% | 10 | 4%
NC(N)=N/N=C(\N=Nc1ccccc1)c1ccc(Cl)cc1 | nt | 8.6% | nt | 12%
O=C(NCCc1ccncc1)C12CC3CC(CC(C3)C1)C2 | -11% | -3.2% | 1 | -2%
CCN(c1ccc(OC)cc1)S(=O)(=O)c1cc(-c2cc(C)no2)ccc1C(C)C | 15% | -3.6% | nt | 4%
COc1cc(-c2ccc3sc(-c4ccsc4)c(C#CCO)c3c2)cc(OC)c1OC | nt | -0.7% | nt | 10%
Cc1ccc(-n2cc(CN(C)Cc3nccn3C)c(-c3ccc(F)cc3)n2)cc1 | 1% | -1.0% | -9 | 0%
CC(C)OC(=O)CSc1nnc(CNc2nc(-c3ccccc3)cs2)n1C | -3% | -1.0% | 6 | 22%
O=S(=O)(NNc1ncc(C(F)(F)F)cc1Cl)c1ccccc1 | nt | 5.1% | nt | -16%
Cc1cc(OCC(=O)Nc2ccc3oc(-c4ccncc4)nc3c2)ccc1Cl | -5% | -1.0% | 7 | -4%
(listing goes on)
SMILES | miR-21 FLuc | Rango-impB inh | GLA inh pH 4.5 | Rango dissoc inh
O=C(NCc1ccccc1)C(c1cccnc1)N(C(=O)c1csnn1)c1ccc(F)cc1 (configuration not stated) | -2% | 0.0% | nt | 2%
CCn1c(CCNC(=O)c2ccc(Cl)c(Cl)c2)nnc1SCCOc1ccc(OC)cc1 | -4% | 0.4% | -4 | 6%
Cc1ccn2c(=O)nc(SCC(=O)NCc3ccco3)nc2c1 | nt | ? | nt | -20%
O=C(O)c1cccnc1Oc1ccccc1 | -7% | -0.2% | 5 | 15%
COc1ccc(OCC(=O)Nn2c(-c3cccc(OC)c3)nc3ccccc3c2=O)cc1 | -5% | -4.3% | 11 | 6%
Cc1cc(Br)cn2cc(C(=O)O)nc12 | -1% | 3.2% | 11 | 11%
O=C(COC(=O)c1ccc(Cl)c(S(=O)(=O)N2CCCCCC2)c1)Nc1ccccc1 | -30% | -0.1% | -3 | -8%
COCCNC(=O)CN(c1ccc(F)cc1)S(=O)(=O)c1ccc2c(c1)OCCO2 | -2% | 3.0% | nt | 18%
Cc1ccc(-n2c(CCc3ccccc3)nnc2SCC(=O)NCc2ccccc2)cc1C | 6% | -1.5% | -12 | 13%
CN(C)S(=O)(=O)c1ccc(C(=O)Nc2ccc(F)cc2F)cc1 | -17% | 3.5% | -1 | 0%
C/C(=N\NC(=O)COc1ccc(C#N)cc1)c1ccccc1OC(F)F | -11% | -0.1% | -1 | 4%
Cc1ccc(S(=O)(=O)N2CCCC(N3CCOCC3)C2)cc1Cl (configuration not stated) | 0% | -2.3% | nt | 9%
O=C(Nc1nccs1)c1cc2c(s1)-c1ccccc1OC2 | -52% | ? | -1 | ?

3 records picked at random from those above, as already listed:
SMILES | miR-21 FLuc | Rango-impB inh | GLA inh pH 4.5 | Rango dissoc inh
O=C(O)c1cccnc1Oc1ccccc1 | -7% | -0.2% | 5 | 15%
COCCNC(=O)CN(c1ccc(F)cc1)S(=O)(=O)c1ccc2c(c1)OCCO2 | -2% | 3.0% | nt | 18%
CCn1c(CCNC(=O)c2ccc(Cl)c(Cl)c2)nnc1SCCOc1ccc(OC)cc1 | -4% | 0.4% | -4 | 6%

This is a subset. The share of hits here may be higher or lower than overall.
